Screening results as filed in PubChem.
Proteasome disasm = blocks ATP-dependent breakdown of the yeast 26S proteasome. anti-FLAG beads, GFP-proteasome disassembly, flow cytometry. 0.2% of 24,000 active. inhibition of disassembly, % (no concentration beside the values);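 active means above 40%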;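 further: plate controls were ATP control with full disassembly for no effect and ATP-gamma-S intact proteasomes for full effect; higher percent means more bead fluorescence retained so stronger block of disassembly; stock transfer was 100 nL into about 10 µL; wells with too few beads may also be inconclusive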
VCAM-1 rise = enhancers of VCAM-1 display on endothelial cells, cell-based, plate reader, pooled HUVEC, TNFa stimulus (AID 455). HUVEC TNFa-induced VCAM-1 immunofluorescence, plate reader; numbers were filed only for top-ranked candidate wells. augmentation, % at 5 µM. 0.2% of 10,000 active;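 active means a compound raising TNF-alpha-driven VCAM-1 surface staining, with its hit status upheld on visual or statistical review; inactive means the rest, including hits rejected on review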;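 further: 0% = TNFa with vehicle and 100% = strongest image-checked hit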
Starred values were filed as active, the others as inactive.

Preview:
For CC(=O)NCCc1cc2ccc(C)cc2[nH]c1=O the results were Proteasome disasm -1.5.
O=C(NC1CCCCC1)c1ccc(CS(=O)(=O)Cc2ccccc2F)o1 was read as Proteasome disasm -0.6.
`Cc1ccccc1C(=O)NC1CCN(Cc2nnnn2Cc2ccccc2)CC1` gave Proteasome disasm -0.7 and VCAM-1 rise inactive.

The list itself, from the start:
For CC(=O)NCCc1cc2ccc(C)cc2[nH]c1=O the results were Proteasome disasm -1.5.
O=C(NC1CCCCC1)c1ccc(CS(=O)(=O)Cc2ccccc2F)o1 was read as Proteasome disasm -0.6.
`Cc1ccccc1C(=O)NC1CCN(Cc2nnnn2Cc2ccccc2)CC1` gave Proteasome disasm -0.7 and VCAM-1 rise inactive.
O=C(NCC(c1cccnc1)N1CCN(c2ccc(F)cc2)CC1)C1CCCCC1 (configuration not stated) was read as Proteasome disasm 6.8.
Screening CCCCn1c(CN2CCN(CCO)CC2)nc2ccccc21 returned Proteasome disasm -1.1 and VCAM-1 rise inactive.
Screening CCCSc1nc2c(c(=O)n1-c1ccc(OCC)cc1)SCC2 returned Proteasome disasm 0.1.
Screening O=C(O)CSc1ccc2ccccc2n1 returned Proteasome disasm -0.1 and VCAM-1 rise inactive.
O=C(CCCNS(=O)(=O)c1cccc2nsnc12)NCc1ccc(F)cc1 was read as Proteasome disasm 3.0.
Screening COc1ccc(F)cc1S(=O)(=O)Nc1ccc2c(c1)OCCO2 returned Proteasome disasm 0.2.
`CCn1c(=O)cc(SCC(=O)N2CCN(Cc3ccc4c(c3)OCO4)CC2)c2ccccc21` gave Proteasome disasm -2.0.
CC1CCCN(S(=O)(=O)c2ccc(Br)s2)C1 (configuration not stated) was read as Proteasome disasm -2.9.
Screening CCOC(=O)N1CCN(c2c(N3CCN(c4ccccn4)CC3)c(=O)c2=O)CC1 returned Proteasome disasm -2.3 and VCAM-1 rise inactive.
`Cc1cc(=O)n2nc(N3CCCC(C(=O)NCc4ccc5c(c4)OCO5)C3)sc2n1` (configuration not stated) gave Proteasome disasm -0.6.
For Cc1cccc(-c2nc(CN3CCCC(C(=O)NC4CCCCC4)C3)c(C)o2)c1 (configuration not stated) the results were Proteasome disasm 3.9.
`CN1CCN(C2=Nc3cc(Cl)ccc3Nc3ccccc32)CC1` gave Proteasome disasm 0.7 and VCAM-1 rise inactive.
N=c1c(C(=O)NCc2ccc(F)cc2)cc2c(=O)n3ccccc3nc2n1CCCN1CCOCC1 was read as Proteasome disasm -2.6 and VCAM-1 rise 19.
Screening O=c1oc2ccccc2cc1NCc1ccccc1O returned Proteasome disasm 0.4 and VCAM-1 rise inactive.
Screening COC(=O)c1ccc(COC(=O)c2c(C)nn(Cc3ccccc3Cl)c2Cl)o1 returned Proteasome disasm -1.6 and VCAM-1 rise inactive.
For Cc1ccc(CNC(=O)C2CCCN(S(=O)(=O)c3cnc[nH]3)C2)cc1 (configuration not stated) the results were Proteasome disasm 0.2 and VCAM-1 rise inactive.
O=C(NCc1ccccn1)C1CCCN(S(=O)(=O)c2cccc3nsnc23)C1 (configuration not stated) was read as Proteasome disasm -2.1.
`CCCC(=O)NC(Nc1ccc(S(=O)(=O)Nc2cc(C)on2)cc1)(C(=O)OCC)C(F)(F)F` (configuration not stated) gave Proteasome disasm 1.2.
`Cc1cc(C(=O)NCC2CCCO2)n(-c2ccccc2)n1` (configuration not stated) gave Proteasome disasm -1.5.
O=C(NC1CCCCC1)N1CCCCCCC1 was read as Proteasome disasm 0.3.
For COc1ccc(C(=O)Nc2nnc(Cc3cccs3)s2)cc1OC the results were Proteasome disasm 1.2.
`CC(=O)N1CCc2cc(S(=O)(=O)NCCC3=CCCCC3)ccc21` gave Proteasome disasm 3.6 and VCAM-1 rise inactive.
`O=C(Cc1ccc(Br)cc1)N1CCCCCC1` gave Proteasome disasm -0.3 and VCAM-1 rise inactive.
`c1ccc(-c2nnc(CN3CCC4(CC3)OCCO4)o2)cc1` gave Proteasome disasm 0.0 and VCAM-1 rise inactive.
Screening CCN(CC)S(=O)(=O)c1cccc2c(N(C)C)cccc12 returned Proteasome disasm -0.7 and VCAM-1 rise inactive.
`Cc1cc(=S)cc(C)n1CCCO` gave Proteasome disasm -4.2.
For COC(=O)c1ccc(NC2(C#N)C(=O)Nc3ccccc32)cc1 (configuration not stated) the results were Proteasome disasm 0.7 and VCAM-1 rise inactive.
Screening CCC(=O)N[C@@H]1CC(C(C)(C)NC(=O)CC)CC=C1C (some centres not stated) returned Proteasome disasm 0.1 and VCAM-1 rise inactive.
`O=C(C1CCN(S(=O)(=O)c2cccc3cccnc23)CC1)N1CCN(C2CCCCC2)CC1` gave Proteasome disasm 0.7 and VCAM-1 rise inactive.
`Cc1onc(-c2ccccc2)c1C(=O)Nc1ccc(S(=O)(=O)N2CCCCC2)cc1` gave Proteasome disasm 1.1 and VCAM-1 rise inactive.
`COC1(OC)N=C(N)C2(C#N)C(c3cccc(Oc4ccccc4)c3)C12C#N` (configuration not stated) gave Proteasome disasm -0.3.
Screening Cn1c(=N)c(S(=O)(=O)c2ccc(Cl)cc2)cc2c(=O)n3ccccc3nc21 returned Proteasome disasm -0.1 and VCAM-1 rise inactive.
For COc1cc(NC(=O)c2nnn(Cc3ccc(SC)cc3)c2N)cc(OC)c1 the results were Proteasome disasm 1.6.
Cc1cc(C)n(C(=O)CNC(=O)C2COc3ccccc3O2)n1 (configuration not stated) was read as Proteasome disasm 1.0 and VCAM-1 rise inactive.
COc1ccccc1C1/C(=C(\O)c2c(C)nc3c(C)cccn23)C(=O)C(=O)N1CCCN(C)C (configuration not stated) was read as Proteasome disasm -1.8 and VCAM-1 rise inactive.
For Cc1cc(NC(=O)CSc2ccc3nnc(-c4cccc(F)c4)n3n2)no1 the results were Proteasome disasm -0.2 and VCAM-1 rise inactive.
`COc1ccc(CCNC(=O)CCn2cccc2)cc1OC` gave Proteasome disasm 0.9.
Screening COc1ccc(OC)c(Nc2ncnc3c2cnn3-c2cccc(C)c2)c1 returned Proteasome disasm 1.3.
Screening Cc1[nH]c2ccc(F)cc2c(=O)c1SC(F)(F)C(F)C(F)(F)F (configuration not stated) returned Proteasome disasm 14 and VCAM-1 rise inactive.
For O=c1cc(Nc2ccc3c(c2)OCO3)[nH]c(=O)n1-c1ccc(Br)cc1 the results were Proteasome disasm -2.4.
`CN(CC(=O)NCc1ccc(Cl)cc1)S(=O)(=O)c1cccc2nsnc12` gave Proteasome disasm 1.5.
COC(=O)CSC1=C(C#N)C(c2ccc(F)cc2)CC(=O)N1 (configuration not stated) was read as Proteasome disasm 0.8 and VCAM-1 rise inactive.
CC(=O)ON1C(C)(C)CC(OC(=O)c2ccccc2)CC1(C)C was read as Proteasome disasm -1.6.
Screening CCOC(=O)c1cn(CC)c2ccc(S(=O)(=O)N3CC(C)CC(C)C3)cc2c1=O (configuration not stated) returned Proteasome disasm -1.8.
For Cc1ccc(N(CC(=O)Nc2ccc(F)c(Cl)c2)S(=O)(=O)c2c(C)noc2C)cc1 the results were Proteasome disasm -0.9.
`CCOC(=O)N1CCN(C(=O)C2CCN(Cc3nc(-c4ccccc4C)oc3C)CC2)CC1` gave Proteasome disasm 26.
For CCOC(=O)N1CCC(N(CCCOC)C(=O)Nc2cccc(OC)c2)CC1 the results were Proteasome disasm 0.6.
For O=C(Nn1cnnc1)C1Cc2ccccc2CN1S(=O)(=O)c1ccc(F)cc1 (configuration not stated) the results were Proteasome disasm -0.5 and VCAM-1 rise inactive.
Screening CCN(C(=O)c1c(OC)cccc1OC)c1nnc(-c2cccnc2)s1 returned Proteasome disasm -1.2 and VCAM-1 rise inactive.
For COc1ccc(S(=O)(=O)Nc2cccc(Cl)c2)cc1OC the results were Proteasome disasm 0.0.
For CN(C)c1nc2c(c(=O)n(C)c(=O)n2C)n1CC(=O)c1cccs1 the results were Proteasome disasm -0.6.
`Cc1nc(NC(C)C(=O)O)c2nc(C)oc2n1` (configuration not stated) gave Proteasome disasm 5.7.
For O=C(Nn1c(=O)[nH]c2ccsc2c1=O)c1ccccc1 the results were Proteasome disasm -0.6.
Screening COCCN1C(=O)C(CC(=O)Nc2ccc(C(=O)O)cc2)SC1=Nc1ccccc1 (configuration not stated) returned Proteasome disasm -0.1.
For CCOC(=O)c1ccc(NCc2ccc3c(c2)OCO3)cc1 the results were Proteasome disasm 0.3.
For CC(C(=O)NCc1cccnc1)N1C(=O)c2ccccc2C1=O (configuration not stated) the results were Proteasome disasm -0.9 and VCAM-1 rise inactive.
For CC1CCN(C(=O)CN2C(=O)C(C)(C)Oc3ccc(C(=O)NC4CCCC4)cc32)CC1 the results were Proteasome disasm -0.1 and VCAM-1 rise inactive.

Some of these compounds in order of count of non-hydrogen atoms, ascending:
CC(=O)ON1C(C)(C)CC(OC(=O)c2ccccc2)CC1(C)C was read as Proteasome disasm -1.6.
For CCOC(=O)N1CCC(N(CCCOC)C(=O)Nc2cccc(OC)c2)CC1 the results were Proteasome disasm 0.6.
For Cc1ccc(N(CC(=O)Nc2ccc(F)c(Cl)c2)S(=O)(=O)c2c(C)noc2C)cc1 the results were Proteasome disasm -0.9.

The list continues:
For CC(C)N(C(=O)CSc1nnc(NC(=O)C2CCC2)s1)C(C)C the results were Proteasome disasm -0.2 and VCAM-1 rise inactive.
CCC(=O)N1CCc2cc(Br)cc(S(=O)(=O)NCC3CCCN3CC)c21 (configuration not stated) was read as Proteasome disasm 0.9.
For Nc1nc(SCC(=O)N2CCCc3ccccc32)n(-c2ccccc2)n1 the results were Proteasome disasm 0.1.
CCc1ccc(NC(=O)N(C2CCC(C)CC2)C2CCN(C(C)=O)CC2)cc1 (configuration not stated) was read as Proteasome disasm 2.4.
Screening CN(CC(=O)N1CCc2ccccc21)S(=O)(=O)c1ccc(Br)s1 returned Proteasome disasm 0.8.
`O=c1[nH]c2ccsc2c(=O)n1-c1ccc(F)c(Cl)c1` gave Proteasome disasm 1.7.
`Cn1c(=O)c2c(nc(N3CCCCC3)n2CCSc2nc3ccccc3o2)n(C)c1=O` gave Proteasome disasm -3.3 and VCAM-1 rise inactive.
Screening Cn1c(CCNC(=O)c2ccc(F)cc2)nc2ccccc21 returned Proteasome disasm -2.3.
CCCCN=c1sc(C(=O)OC)cc(=O)n1CCCC was read as Proteasome disasm 4.2.
Screening O=c1cc(-c2ccc3c(c2)OCO3)oc2ccccc12 returned Proteasome disasm -1.6.
Screening COC(=O)c1ccc(C2c3c(oc4ccccc4c3=O)C(=O)N2CCCN2CCOCC2)cc1 (configuration not stated) returned Proteasome disasm -2.2.
Screening CCOc1ccc(Cn2nnc(C(=O)NCCc3ccccc3)c2N)cc1 returned Proteasome disasm 1.2.
For Cc1ccc2[nH]c(=O)c3cc(C(=O)NCCN4CCN(C)CC4)sc3c2c1 the results were Proteasome disasm 0.8 and VCAM-1 rise inactive.
Screening CC(C)(C)n1ncc2c(=O)n(Cc3c(F)cccc3Cl)cnc21 returned Proteasome disasm 2.8.
O=C(Cn1cnc2c(oc3ccccc32)c1=O)NCC1CCCO1 (configuration not stated) was read as Proteasome disasm 1.1.
COc1ccc(NC(=O)CC2Oc3ccc(C)cc3NC2=O)cc1 (configuration not stated) was read as Proteasome disasm 6.3.
`O=C(Nc1nnc(N2CCCCCC2)s1)c1cc(-c2ccc(Br)cc2)on1` gave Proteasome disasm -0.4 and VCAM-1 rise inactive.
Screening Cc1ccc(N2OC3C(=O)NC(=O)C3C2c2ccco2)cc1 (configuration not stated) returned Proteasome disasm -1.1.
For COc1ccccc1NC(=O)CSc1nnc(CNC(=O)c2ccco2)o1 the results were Proteasome disasm 0.8.
COc1ccccc1-c1cc(C(=O)N2CCCCC2)no1 was read as Proteasome disasm 1.6.
For O=C(CCN1CCOCC1)Nc1cccc(Br)c1 the results were Proteasome disasm -0.2 and VCAM-1 rise inactive.
For Cc1nnc(SCC(=O)N2CC(=O)Nc3ccccc32)n1-c1ccccc1 the results were Proteasome disasm -0.2 and VCAM-1 rise inactive.
CC1(CC(=O)O)C(=O)N=C2C=CC=CN21 (configuration not stated) was read as Proteasome disasm -0.2 and VCAM-1 rise inactive.
CN(C)CC(C(=O)c1ccccc1)c1ccccc1 (configuration not stated) was read as Proteasome disasm 1.1 and VCAM-1 rise inactive.
COC(=O)c1cn(NC(=O)c2cccc(N(C)C)c2)c(=O)c2ccccc12 was read as Proteasome disasm 1.4.
For O=C(Nc1c(C(=O)O)oc2ccc(Br)cc12)c1ccccc1 the results were Proteasome disasm 2.1.
For CCN1CCN(C(CNC(=O)c2ccc3c(c2)OCO3)c2cccnc2)CC1 (configuration not stated) the results were Proteasome disasm 0.7 and VCAM-1 rise inactive.
Screening c1nc(NCC2CCCO2)c2[nH]cnc2n1 (configuration not stated) returned Proteasome disasm -0.2 and VCAM-1 rise inactive.
`O=C(CN1C(=O)CC(c2ccccc2)=Nc2ccccc21)NCc1ccco1` gave Proteasome disasm 1.1 and VCAM-1 rise inactive.
`Nc1[nH]nc2nc(N3CCOCC3)nc(-c3ccccc3)c12` gave Proteasome disasm -0.6.
For c1ccc(-c2ccc(-c3ccccn3)nn2)nc1 the results were Proteasome disasm -2.5 and VCAM-1 rise inactive.
Screening CCOC(=O)N1CCN(c2c(N3CCN(c4ccccc4OC)CC3)c(=O)c2=O)CC1 returned Proteasome disasm -2.0 and VCAM-1 rise inactive.
C=CCc1c(C)nc(SC)nc1Nc1ccc(C(=O)O)cc1 was read as Proteasome disasm 0.4 and VCAM-1 rise inactive.
COc1cccc(C2CC(c3ccc(C)cc3)n3nc(N)nc3N2)c1 (configuration not stated) was read as Proteasome disasm -0.3 and VCAM-1 rise inactive.
Screening CC(=O)C1=C(C)NC(=O)NC1c1cccc(O)c1 (configuration not stated) returned Proteasome disasm 1.8 and VCAM-1 rise inactive.
Cc1cccc(-n2ncc3c(N4CCN(c5nc(C)cc(C)n5)CC4)ncnc32)c1 was read as Proteasome disasm 0.7.

Some of the compounds tested; the hit share may differ from the screen's.
